Assay outcomes as filed in PubChem BioAssay.
Bfl-1 A1 inh = inhibitors of the anti-apoptotic protein A1, read as caspase activation. 0.066% of 330,000 active. caspase activation, % (test concentration not listed). MEF A1-2A-BIM cells, Caspase-Glo 3/7 luminescence, 3 h; percent of clofoctol response, vehicle zero;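 active means over half of replicate activation scores above 10%, or exactly half above 10 with the replicate mean above 10; inconclusive means replicate mean below 10 yet half the replicates above 10; inactive means over half of replicates below 10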;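 further: wells of about 30 µL received 50 nL stock; many hits fall short of the cut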
Beta cell apopt = blocks beta cell apoptosis; INS-1E cytokine-induced death, ATP luminescence, 48 h; percent of positive-control rescue, neutral wells zero; protection from apoptosis, % (test concentration not listed); 0.8% of 300,000 active; AID 435005;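 active means all replicates at 75% or more, or half of them and the mean; inconclusive means half reach 75% but not the mean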;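 further: 0% = cytokine-treated negative control wells and 100% = positive control rescue; higher means more ATP so stronger rescue from cytokine killing; wells of about 40 µL received 100 nL stock; the first replicate is given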
Calb FLC = affects C. albicans growth with fluconazole | C. albicans CaCi-2 (fluconazole-resistant clinical isolate) + fluconazole, Alamar Blue growth, 48 h | growth inhibition, % (concentration not given with the values) | 0.57% of 300,000 active | AID 1979;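 active means most replicates above 75%; inconclusive means exactly half above 75%; inactive means most below 75%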;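 further: all wells also contain fluconazole at 8 µg/ml as a sub-toxic cotreatment; 0% = median of DMSO wells and 100% = median of geldanamycin control wells; wells of about 8 µL received 7.5 nL stock; the first replicate is given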
RanGTP-Imp inh = disruptors of Ran-importin-beta complex formation – biochemical, FRET, CFP-Ran, YFP-importin-beta, homogeneous, primary screen; inhibition, % (no concentration beside the values); AID 2216; cell-free CFP-Ran/YFP-importin-beta FRET ratio; 1.1% of 300,000 active;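 active means most replicates above 15%; inconclusive means exactly half above 15%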;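 further: 0% = DMSO wells and 100% = Ran loaded with GDP instead of GTP; wells of about 40 µL received 100 nL stock; the first replicate is given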
AF4-AF9 inh = inhibitors of human MLL-AF4/AF9 interaction; P42568; AlphaScreen, biotin-AF4 peptide binding to FLAG-AF9; inhibition, % at 10 µM; 0.47% of 350,000 active; AID 651704;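 active means every replicate reaching a set inhibition limit, whatever the replicate mean, cut at about 25% in these data; inconclusive means mean inhibition reaches that limit but some replicates miss it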;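 further: 0% = plate neutral control median and 100% = total signal loss; the record names both 10 and 1 µM as test concentration; the first replicate is given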
Target sequence (P42568 whole entry, looked up): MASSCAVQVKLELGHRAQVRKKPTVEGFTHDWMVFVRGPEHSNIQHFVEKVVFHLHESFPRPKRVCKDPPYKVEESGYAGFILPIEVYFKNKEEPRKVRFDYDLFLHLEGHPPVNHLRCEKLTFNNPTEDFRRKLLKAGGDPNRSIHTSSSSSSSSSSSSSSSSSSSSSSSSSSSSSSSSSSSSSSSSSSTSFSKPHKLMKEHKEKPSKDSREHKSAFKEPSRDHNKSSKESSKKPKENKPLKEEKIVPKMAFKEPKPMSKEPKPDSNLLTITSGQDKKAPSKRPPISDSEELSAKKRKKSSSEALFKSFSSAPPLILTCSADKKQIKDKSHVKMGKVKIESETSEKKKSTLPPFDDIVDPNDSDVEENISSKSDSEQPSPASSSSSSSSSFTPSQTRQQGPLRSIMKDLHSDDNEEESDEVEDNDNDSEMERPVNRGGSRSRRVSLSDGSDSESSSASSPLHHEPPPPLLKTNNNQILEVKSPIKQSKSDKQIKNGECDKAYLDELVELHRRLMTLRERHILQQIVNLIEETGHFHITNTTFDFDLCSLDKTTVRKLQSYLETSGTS
T cruzi repl = blocks replication of Trypanosoma cruzi | T. cruzi beta-gal in NIH3T3, luminescence, 90 h | inhibition, % (no concentration beside the values) | 1.4% of 300,000 active;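 active means mean inhibition across valid replicates above about 55%, limit read from the data; inconclusive means mean below that limit but half or more replicates reach it; inactive means mean below it, under half of replicates reach it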;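 further: signal also drops with host cell toxicity which is not excluded here; 0% = plate median of DMSO wells and 100% = zero luminescence signal; higher percent means less beta-gal luminescence so fewer parasites; stock transfer was 50 nL into about 50 µL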
rRNA inh HTS = inhibits bacterial ribosomal RNA function over humanized ribosomes; GFP signal change (wild-type ribosome), % (concentration not given with the values); E. coli WT GFP vs humanized-ribosome RFP mutants, fluorescence, 24 h; active compounds read low; DMSO median 0, no signal -100; AID 720706; 1.6% of 350,000 active;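 active means significant combined selectivity score with lowered wild-type GFP, culture density cut under 30%, mutant RFP and density less affected; inactive means any of these conditions unmet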; further: one replicate is shown; some compounds called inactive have numbers as strong as hits
Vif A3G = inhibitors of Vif binding to APOBEC3G peptide, primary screen, biochemical, TR-FRET, GST-Vif 1-94, biotin-A3G peptide, dose response retest (AID 1117319) | TR-FRET GST-Vif / biotin-A3G peptide binding; higher % means a stronger effect; test concentration not given here; strong numbers were not always called active | inhibition, %, or IC50 in µM where a hit was titrated | 0.57% of 260,000 active;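 active means above the screen mean plus three standard deviations and confirmed in dose response; inconclusive means results disagree or hit not tested in dose response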;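 further: Vif residues 1-94 fused to GST binding biotinylated APOBEC3G peptide 110-148; 0% = full assay without inhibitor and 100% = GST in place of GST-Vif; retest series ran down from 100 µM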
rRNA inh HTS OD600 = second read-out of rRNA inh HTS, no call of its own (marks repeat the call); OD600 change, %; measured here: OD600 growth;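 optical density of the mix in the first replicate; 0 = DMSO median and -100 = no signal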
rRNA inh HTS RFP = also measured in rRNA inh HTS; calls as there; RFP signal change, %; measured here: RFP humanized mutant strains;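 first replicate; 0 = DMSO median and -100 = no signal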
Starred values were filed as active, the others as inactive; ? = inconclusive; . = no result given. These rows are one share of the data, so the mix of outcomes need not match the whole.

#	compound	Beta cell apopt	RanGTP-Imp inh	Calb FLC	rRNA inh HTS OD600	rRNA inh HTS RFP	AF4-AF9 inh	Bfl-1 A1 inh	Vif A3G	T cruzi repl	rRNA inh HTS
1	Cc1ccccc1C(=O)NC(C)C(c1cccs1)N1CCOCC1 (stereo not given)	-5	-4.1	1	3	-5.8	-13	-0.4	3%	-7	8
2	COc1cccc(CNC23CC4CC(CC(C4)C2)C3)c1OCc1ccccc1	26	5.6	?	-70	-2.1	-56	-1.6	.	43	-53
3	Nc1cc(-c2ccc(Br)cc2)nn1S(=O)(=O)c1cccc2nsnc12	5	?	14	-38	-4.3	11	0.7	4%	29	-18
4	CC(=O)C1=C(O)C(=O)N(c2ccc(O)cc2)C1c1ccc(F)cc1 (stereo not given)	-5	-1.7	.	14	-2.0	-3.8	-0.1	-5%	-9	8
5	Nc1ccn([C@@H]2CS[C@H](CO)O2)c(=O)n1	-9	3.5	.	.	.	.	0.4	-8%	7	.
6	Cc1ccc(S(=O)(=O)NC(CC(C)C)C(=O)N2CCC(C)CC2)cc1 (stereo not given)	-1	-0.9	0	-23	-0.3	-2.8	0.2	6%	9	-11
7	C=CCc1ccc(OCCCNC2CCCC2)c(OC)c1	2	4.4	-25	1	0.3	-3.4	-0.1	.	28	13
8	O=C(COC(=O)Cc1cccs1)Nc1cc(S(=O)(=O)N2CCOCC2)ccc1Cl	-3	.	.	12	2.6	0.9	1.1	-5%	.	3
9	Cc1ccc2c(cnn2C(=O)CCC(=O)NCc2cccc(Cl)c2)c1	-1	1.7	4	12	-0.4	2.0	-0.4	.	-3	8
10	CCOC(=O)N1CCN(C(=O)c2ccc(NS(=O)(=O)c3ccc(C)cc3)cc2)CC1	0	1.1	0	8	1.8	-0.1	-0.9	.	-11	1
11	CN(CC(=O)Nc1c(Cl)cccc1Cl)C(=O)c1sccc1-c1ccccc1	-12	1.8	2	-1	5.8	-1.9	0.1	-1%	-9	-4
12	COC(=O)c1c(C)c2c(C)cc3ccccn3c-2c1C(=O)OC	7	-1.2	-1	.	.	.	0.3	-1%	5	.
13	CCOc1cccc2cc(-c3cn4cc(C)ccc4n3)c(=O)oc12	-7	-0.6	7	.	.	.	-4.4	-6%	3	.
14	O=C1c2cccnc2C(=O)N1Cc1ccco1	-6	-5.8	-5	.	.	.	-0.6	7%	1	.
15	Cc1c(C)n(C)c2ccc(C(=O)NCc3cccs3)cc12	-2	-1.3	-4	1	43	3.2	0.0	5%	-1	-3

14 of the compounds above, with two lines to a compound.
Value order: Beta cell apopt | RanGTP-Imp inh | Calb FLC | rRNA inh HTS OD600 | rRNA inh HTS RFP | AF4-AF9 inh | Bfl-1 A1 inh | Vif A3G | T cruzi repl | rRNA inh HTS
1. Cc1ccccc1C(=O)NC(C)C(c1cccs1)N1CCOCC1 (stereo not given)
 : -5 | -4.1 | 1 | 3 | -5.8 | -13 | -0.4 | 3% | -7 | 8
2. COc1cccc(CNC23CC4CC(CC(C4)C2)C3)c1OCc1ccccc1
 : 26 | 5.6 | ? | -70 | -2.1 | -56 | -1.6 | . | 43 | -53
3. Nc1cc(-c2ccc(Br)cc2)nn1S(=O)(=O)c1cccc2nsnc12
 : 5 | ? | 14 | -38 | -4.3 | 11 | 0.7 | 4% | 29 | -18
4. CC(=O)C1=C(O)C(=O)N(c2ccc(O)cc2)C1c1ccc(F)cc1 (stereo not given)
 : -5 | -1.7 | . | 14 | -2.0 | -3.8 | -0.1 | -5% | -9 | 8
5. Nc1ccn([C@@H]2CS[C@H](CO)O2)c(=O)n1
 : -9 | 3.5 | . | . | . | . | 0.4 | -8% | 7 | .
6. Cc1ccc(S(=O)(=O)NC(CC(C)C)C(=O)N2CCC(C)CC2)cc1 (stereo not given)
 : -1 | -0.9 | 0 | -23 | -0.3 | -2.8 | 0.2 | 6% | 9 | -11
7. C=CCc1ccc(OCCCNC2CCCC2)c(OC)c1
 : 2 | 4.4 | -25 | 1 | 0.3 | -3.4 | -0.1 | . | 28 | 13
8. O=C(COC(=O)Cc1cccs1)Nc1cc(S(=O)(=O)N2CCOCC2)ccc1Cl
 : -3 | . | . | 12 | 2.6 | 0.9 | 1.1 | -5% | . | 3
9. Cc1ccc2c(cnn2C(=O)CCC(=O)NCc2cccc(Cl)c2)c1
 : -1 | 1.7 | 4 | 12 | -0.4 | 2.0 | -0.4 | . | -3 | 8
10. CCOC(=O)N1CCN(C(=O)c2ccc(NS(=O)(=O)c3ccc(C)cc3)cc2)CC1
 : 0 | 1.1 | 0 | 8 | 1.8 | -0.1 | -0.9 | . | -11 | 1
11. CN(CC(=O)Nc1c(Cl)cccc1Cl)C(=O)c1sccc1-c1ccccc1
 : -12 | 1.8 | 2 | -1 | 5.8 | -1.9 | 0.1 | -1% | -9 | -4
12. COC(=O)c1c(C)c2c(C)cc3ccccn3c-2c1C(=O)OC
 : 7 | -1.2 | -1 | . | . | . | 0.3 | -1% | 5 | .
13. CCOc1cccc2cc(-c3cn4cc(C)ccc4n3)c(=O)oc12
 : -7 | -0.6 | 7 | . | . | . | -4.4 | -6% | 3 | .
14. O=C1c2cccnc2C(=O)N1Cc1ccco1
 : -6 | -5.8 | -5 | . | . | . | -0.6 | 7% | 1 | .

Later entries.
#	compound	Beta cell apopt	RanGTP-Imp inh	Calb FLC	rRNA inh HTS OD600	rRNA inh HTS RFP	AF4-AF9 inh	Bfl-1 A1 inh	Vif A3G	T cruzi repl	rRNA inh HTS
16	CC(C)(CNC(=O)c1cc2ccccc2o1)N1CCOCC1	-10	8.0	-5	.	.	.	1.2	9%	-6	.
17	Cc1ccc(S(=O)(=O)CCC(=O)Nc2ccccc2N2CCCC2)cc1	5	.	.	.	.	1.4	0.8	3%	.	.
18	CCc1ccc(OCc2nnc(SCC(=O)N3CCOCC3)o2)cc1	-4	-0.1	-2	7	0.9	-3.9	0.5	.	-2	4
19	CNC(=O)C(NC(=O)Nc1ccc(C)cc1)C(C)(C)C (stereo not given)	-10	1.0	1	12	0.9	-1.4	0.4	-8%	-21	11
20	CCN(CC)S(=O)(=O)c1cccc(NC(=O)COC(=O)c2cncc(Br)c2)c1	0	.	.	-12	4.0	-3.0	1.3	-3%	.	4
21	COc1cccc(-n2sc3c(c2=S)-c2cc(OC)ccc2NC3(C)C)c1	1	4.9	1	.	.	.	0.9	10%	46	.
22	COC(=O)CNC(=O)c1ccccc1	-5	?	-4	.	.	-2.8	0.6	.	-21	.
23	COC(=O)c1c(-c2ccco2)csc1NC(=O)C1CC=CCC1C(=O)O (stereo not given)	-2	0.2	18	.	.	.	0.8	24%	2	.
24	CCN(CC)c1ccc(NC(=O)Nc2ccccc2C(F)(F)F)cc1	2	5.7	0	.	.	.	-1.0	?	-20	.
25	CCCCc1nnc(NC(=O)c2ccc(S(=O)(=O)N3CCOCC3)cc2)s1	-3	.	.	14	4.3	1.1	0.9	-1%	.	15
26	CN(C)CCNc1nc2c(c(=O)[nH]c(=O)n2C)n1CC(O)COc1ccc(Cl)cc1 (stereo not given)	.	-2.7	5	.	.	.	1.1	-2%	14	.
27	CCCC(C)C(=O)Nc1ccncc1 (stereo not given)	1	0.9	-4	.	.	.	-1.7	30%	10	.
28	COc1ccc(Br)cc1S(=O)(=O)NCCN1CCOCC1	.	?	-15	14	-2.3	-19	1.1	1%	-9	-1
29	Cc1ccc2nc(SCC(=O)Nc3cc(C)on3)c(C)cc2c1	4	3.5	8	7	-0.3	-1.2	1.0	.	15	8
30	CC(Sc1nc2ccccc2s1)C(=O)NC1CCCc2ccccc21 (stereo not given)	-5	3.2	17	.	.	.	0.6	.	-12	.
31	CCOC(=O)C1CCN(S(=O)(=O)c2ccc(C(=O)OC)cc2)CC1	2	-2.6	-1	4	-2.4	3.6	0.5	-6%	-5	3
32	O=C(CNC(=S)N(Cc1ccc(F)cc1)C1CCCCC1)NC1CC1	-9	0.1	0	.	.	.	-1.0	-4%	-3	.
33	COc1ccc(N2CCN(C(CNC(=O)CC(C)(C)C)c3ccc4c(c3)OCO4)CC2)cc1 (stereo not given)	5	3.6	12	6	4.4	10	0.2	.	-9	-4
34	O=C(O)CN1CCN(CC(=O)O)CCN(CC(=O)O)CCN(CC(=O)O)CC1	1	1.8	8	.	.	-2.3	1.0	.	-12	.
35	Fc1ccc(NC(=S)NCc2ccc3c(c2)OCO3)cc1	-7	11	-26	3	-1.5	-4.5	-1.4	.	-13	5
36	Cc1cc(C)cc(C(=O)N2CC(=O)Nc3ccccc32)c1	22	0.1	7	.	.	.	3.1	29%	15	.
37	O=C(Nc1nccc(-c2cccs2)n1)c1ccccc1Cl	-8	-1.2	13	.	.	.	0.7	74%	-3	.
38	Cc1noc(C)c1C(=O)OCC(=O)N(C)C1(C#N)CCCCC1	5	.	.	1	-0.6	-0.7	-5.3	.	.	3
39	CCC(C)N(C(=O)Cn1nnc(-c2ccc(Cl)cc2)n1)C1CCS(=O)(=O)C1 (stereo not given)	.	10	-4	1	-1.8	0.6	1.2	-3%	7	-4
40	COc1ccc(C(CNC(=O)C(C)Oc2ccc(Br)cc2)N2CCOCC2)cc1 (stereo not given)	2	3.7	-6	-8	4.7	8.8	1.4	-9%	-5	-6
41	O=C(CN1C(=O)NC2(CCCC2)C1=O)OCc1ccccc1F	-10	.	.	4	-1.1	0.8	1.3	-4%	.	4
42	CSC(=S)N(C)C1CCS(=O)(=O)C1 (stereo not given)	3	-4.4	3	.	.	.	0.2	.	4	.
43	CC(C)(CCl)C(=O)Nc1ccc(C(F)(F)F)cc1	-5	3.1	-11	8	-1.7	0.3	-2.0	7%	3	5
44	COc1ccc(Cl)c(NC(=O)Nc2c(C)n(-c3ccccc3)c(=O)n2C)c1	-3	-2.5	-1	.	.	.	0.9	-3%	3	.
45	CCCCNS(=O)(=O)c1ccc2nc(-c3cccs3)cc(C(=O)NCC(OC)OC)c2c1	12	-1.9	4	.	.	.	-0.4	?	14	.
46	CCc1cc2c(=O)[nH]c(N3CCOCC3)nc2s1	-2	1.5	-28	.	.	.	-0.8	6%	-5	.
47	COc1ccc(-c2cc(C(F)(F)F)n3nc(C(=O)NCCCN4CCOCC4)cc3n2)cc1	-6	5.6	14	-8	-8.2	-1.8	-0.4	?	2	-6
48	Cc1cc(Br)ccc1OCCCCNCCO	-5	2.8	-20	.	.	.	0.1	1%	16	.
